# MARV entry inh: qHTS for inhibitors of binding or entry into cells for Marburg Virus; Marburg virus pseudotyped entry inhibition, cell reporter; control for the full effect not named in the record; about a third of the inactives were read at about 46 µM; Potency, µM (top dose mostly 37.8 µM), for inactives: at the highest dose activity change, negative = inhibition, usual class: inhibitors; AID 540276, 2011; 300,000 compounds, 1.8% hits; active = well fitted inhibition curve with a large enough effect; inconclusive = small, poorly fitted or top-dose-only effect, or effect the other way; inactive = flat fitted curve, though single readings scatter; tested in HEK293 cells; about a fifth of its hits are not listed in these tables; note: % is set by controls: 0 for no effect and ±100 for the full control effect; luciferase read-out
# Cruzain inh Det: qHTS Assay for Promiscuous and Specific Inhibitors of Cruzain (with detergent). Cruzipain (Trypanosoma cruzi), P25779. purified cruzain, Z-FR-AMC fluorescence, 0.01% Triton. Potency, µM, inactives show max response, negative = inhibition, hits mostly inhibitors. 200,000 compounds, 0.43% hits. AID 1478, 2009; active = well fitted curve in the direction sought with a large enough effect; inconclusive = small, poorly fitted or top-dose-only effect, or another doubt; inactive = no such curve, though single readings can be large; an effect the other way counts as inactive or inconclusive;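 note: plate controls were neutral wells for no effect and buffer without enzyme for full effect; nearly all actives have a fitted effect of over 40% in size; top concentration of the series not given in the record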
# Target sequence (P25779 123-467 limits assumed): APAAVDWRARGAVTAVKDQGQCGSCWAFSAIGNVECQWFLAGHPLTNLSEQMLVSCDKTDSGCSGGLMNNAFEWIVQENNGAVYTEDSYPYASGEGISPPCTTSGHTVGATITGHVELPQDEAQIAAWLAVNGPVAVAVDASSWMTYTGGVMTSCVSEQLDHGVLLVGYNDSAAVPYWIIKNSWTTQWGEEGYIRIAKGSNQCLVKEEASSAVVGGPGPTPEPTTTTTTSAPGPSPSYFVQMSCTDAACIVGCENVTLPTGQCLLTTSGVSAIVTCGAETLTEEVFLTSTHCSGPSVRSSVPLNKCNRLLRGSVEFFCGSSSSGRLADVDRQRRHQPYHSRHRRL
#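 Purified cruzain (1.5 nM final) was preincubated with compounds for 15 min at room temperature in 100 mM sodium acetate pH 5.5, 5 mM DTT, 0.01% Triton X-100. Reaction started with 2 uM Z-FR-AMC; AMC fluorescence change over 60 s gave activity.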
# Cruzain inh noDet: qHTS Assay for Promiscuous and Specific Inhibitors of Cruzain (without detergent). Cruzipain (Trypanosoma cruzi), P25779. purified cruzain, Z-FR-AMC fluorescence, no detergent. Potency, µM, without a hit: max response, negative = inhibition, usual class: inhibitors. 200,000 compounds, 2.3% hits. AID 1476, 2009; active = well fitted curve in the direction sought with a large enough effect; inconclusive = small, poorly fitted or top-dose-only effect, or another doubt; inactive = no such curve, though single readings can be large; an effect the other way counts as inactive or inconclusive;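 note: plate controls were enzyme without inhibitor for no effect and buffer without enzyme for full effect; nearly all actives have a fitted effect of over 40% in size; top concentration of the series not given in the record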
#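 Detergent-free condition (0.00005% Triton X-100) in acetate buffer pH 5.5 with DTT. 1.5 nM enzyme and compound were pre-mixed 15 min, then 2 uM Z-FR-AMC substrate added; reaction progress from fluorescence change between first and third reads (60 s).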
# SARS PLP yeast: qHTS of Yeast-based Assay for SARS-CoV PLP; S. cerevisiae expressing SARS-CoV PLpro, growth rescue; control for the full effect not named in the record; Potency, µM (top dose mostly 32.9 µM), for inactives: at the highest dose activity, positive = growth rescue; 330,000 compounds, 0.19% hits; note: 0% is about no effect; nearly all actives have a fitted effect of over 55% in size; growth read by luminescence after 48 h
# Lassa entry inh: qHTS for Inhibitors of binding or entry into cells for Lassa Virus; Potency, µM (top dose mostly 37.9 µM), for the others: at the highest dose activity change, negative = inhibition, actives largely listed as inhibitors; Lassa virus pseudotype entry inhibition, cell reporter; control for the full effect not named in the record; 300,000 compounds, 1.2% hits; AID 540256, 2011; active means well fitted inhibition curve with a large enough effect; inconclusive means small, poorly fitted or top-dose-only effect, or effect the other way; inactive means flat fitted curve, though single readings scatter; tested in HEK293 cells; note: % is set by controls: 0 for no effect and ±100 for the full control effect; nearly all actives have a fitted effect of over 50% in size; luciferase read-out
# 2A StopGo: High Throughput Screening for Foot and Mouth Disease Virus Antivirals. human cells with a luciferase reporter of 2A StopGo recoding; control for the full effect not named in the record. 410,000 compounds, 1.2% hits. Potency, µM (top dose mostly 57.9 µM), for the others: top-dose signal change, negative = less light; active = well fitted falling curve with a large enough effect; inconclusive = small, poorly fitted or top-dose-only effect; inactive = no such curve, though single readings can be large or run the other way; tested in HEK293T cells; note: % is set by controls: 0 for no effect and ±100 for the full control effect; nearly all actives have a fitted effect of over 45% in size; luciferase light after 4 h
# NS1 function inh: qHTS Assay for Inhibitors of Influenza NS1 Protein Function | Potency, µM (top dose mostly 46.1 µM), for the others: top-dose activity, positive = more growth | AID 2326, 2010 | 270,000 compounds, 0.4% hits | S. cerevisiae slowed by influenza A NS1, growth recovery by OD600; note: actives are rising curves; nearly all actives have a fitted effect of over 50% in size
#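 OD600 was taken as the measure of yeast growth restored by compound in an NS1-expressing S. cerevisiae strain. Cells had been washed out of glucose medium and diluted 1:100 into galactose -URA medium, pH 6.0.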
# RE007 growth inh: qHTS Assay for Inhibitors of the HIV-1 protein Vpr. AID 651644, 2012. Potency, µM (series often up to 92.2 µM), inactives show at the highest dose activity change, negative = less growth. 360,000 compounds, 0.21% hits. S. pombe RE007 Vpr strain, BacTiter-Glo ATP luminescence, 24 h; control for the full effect not named in the record; active = well fitted falling curve with a large enough effect; inconclusive = small, poorly fitted or top-dose-only effect; inactive = no such curve, though single readings can be large or run the other way;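 note: % is set by controls: 0 for no effect and ±100 for the full control effect; nearly all actives have a fitted effect of over 50% in size; the assay follows cell death caused by Vpr and the record does not say whether a fall means rescue or toxicity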
#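 Fission yeast strain RE007, carrying one chromosomally integrated HIV-1 vpr copy, was seeded at OD 0.01 in PMG+AL medium with 23 nL pinned compound. After 24 h at 30 °C and 99% humidity, viability was read by BacTiter-Glo luminescence.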
# * = called active by the depositor; ? = inconclusive; / = no result given; & = joins results of further samples; [ ] = remark or other dose. Unless noted, calls come from the whole dose curve; as a rule, active means well fitted rising curve with a large enough effect; inconclusive means small, poorly fitted or top-dose-only effect; inactive means no such curve, though single readings can be large or run the other way. Potency is the fitted concentration of half-maximal effect.
SMILES,MARV entry inh,Cruzain inh Det,Cruzain inh noDet,SARS PLP yeast,Lassa entry inh,2A StopGo,NS1 function inh,RE007 growth inh
COc1ccc(S(=O)(=O)N(CC(=O)NCc2ccco2)c2ccc(C)cc2)cc1OC,?,/,/,15%,17%,-7%,19%,-3%
CC(CCc1ccc(O)cc1)NC1c2ccccc2-c2ccccc21 (stereo not drawn),/,/,/,3%,/,-3%,-6%,4%
Cc1cc(C)cc(NC(=O)c2ccc3c(O)c(S(=O)(=O)c4ccccc4)c(=O)[nH]c3c2)c1,/,-2.7%,-13%,/,-16%[46.1 µM],-16%,/,/
Cc1cc(N2CCN(c3ccccc3)CC2)nc(-c2ccccc2O)n1,6%,-21%,?,-9%,-10%,-8%,-97%,8%
CC(O)c1nc2ccccc2n1CC(=O)Nc1ccc2c(c1)OCCO2 (stereo not drawn),?,/,/,2%,0%[46.1 µM],17%,/,-10%
CN(C)c1ccc(N2C(=NC(=O)CCC3CCCC3)SC3CS(=O)(=O)CC32)cc1 (stereo not drawn),-3%[46.1 µM],/,/,-11%,-4%[46.1 µM],-14%,-5%,-24%
CCn1c(=NC(=O)CSC(C)=O)sc2cc(OC)ccc21,/,-9.2%,-7%,-22%,/,-1%,-34%,-8%
COc1cc([N+](=O)[O-])ccc1NC(=O)NCC1CCN(Cc2ccc(Cl)cc2)CC1,?,/,/,-1%,-28%[46.1 µM],-23%,4%,-9%
CSc1nc2oc3c(c2c2nncn12)CC(C)(C)SC3,-5%,-4.7%,0%,4%,14%,-17%,-1%,6%
Cc1ccc(C)c(NC(=O)c2ccc3c(O)c(S(=O)(=O)c4ccc(Cl)cc4)c(=O)[nH]c3c2)c1,/,-3.5%,4%,/,2%[46.1 µM],-18%,/,/
COc1ccccc1NC(=O)c1c(NCc2ccc(OC)c(OC)c2OC)sc2c1CCCC2,/,-5.6%,20%,/,-22%[46.1 µM],-13%,/,/
C=C(C)CSc1nnc([C@H](CCSC)NC(=O)OC(C)(C)C)o1,-1%,-0.1%,2%,-3%,-30%,-12%,-7%,-8%
O=C(Nc1nccs1)c1ccc([N+](=O)[O-])cc1Cl,/,/,/,1%,/,0%,-3%,5%
CCOc1ccc(N(C)S(=O)(=O)c2cc(-c3cc(C)no3)ccc2C)cc1,/,/,/,-5%,/,20µM*,9%,7%
O=C1c2ccc([N+](=O)[O-])cc2C(=O)N1CNc1ccccn1,11%[46.1 µM],/,/,9%,1%,2%,/,-6%
CN(C)S(=O)(=O)c1cccc(NC(=O)c2cc3c(cc2Cl)N2CCCCCC2=NS3(=O)=O)c1,-15%[46.1 µM],/,/,4%,6%[46.1 µM],-9%,/,2%
COc1ccc(Cc2nnc(SCC(=O)N3CCc4ccccc4C3)o2)cc1,5%,-5.4%,-10%,-9%,1%,/,-46%,0%
COc1ccc(CNC(=O)c2ccc(CN3C(=O)C(C)=C(c4ccc(C)cc4)S3(=O)=O)cc2)cc1,/,-3.2%,?,/,7%[46.1 µM],-2%,/,/
O=C(COc1ccc(F)c(Cl)c1)c1ccc[nH]1,26%,-6.6%,-9%,-7%,21%,48%[activator],-9%,-5%
CC(C)C1N=C2c3ccccc3N=C(SCC(=O)c3ccc(O)c(O)c3)N2C1=O (stereo not drawn),?,-6.5%,-15%,1%,-15%,-11%,5%,-5%
c1cncc(CNCc2ccco2)c1,13%[46.1 µM],/,/,-1%,9%[46.1 µM],6%,6%,2%
CC(Sc1nc2ccccc2c(=O)n1CCCN1CCOCC1)C(=O)N1CCc2ccccc21 (stereo not drawn),-19%[46.1 µM],/,/,/,2%,-9%,/,0%
N#Cc1ccccc1OCC(=O)NNC(=O)CCNC(=O)c1ccccc1,7%,/,/,0%,11%,-4%,/,2%
O=C(Nc1ccc(NC(=O)C2CCCCC2)nc1)c1cccs1,4%[46.1 µM],/,/,0%,-12%,17%,-2%,5%
COc1ccc(C2CCCN2C(=S)Nc2cccc(Cl)c2)cc1OC (stereo not drawn),-13%[46.1 µM],/,/,1%,-3%[46.1 µM],-8%,/,6%
CCOC(=O)CN(C(=O)CSc1nnc(COc2ccc(OC)cc2)n1CC)c1ccccc1,-29%[46.1 µM],/,/,0%,29%,13%,-33%,48%
CCOC(=O)c1ccc(N(CC(=O)NCC2CCCO2)C(=O)CCC(=O)Nc2cc(C)on2)cc1 (stereo not drawn),1%[46.1 µM],/,/,6%,-23%,-2%,-11%,6%
CC1CCN(C(=O)COC(=O)CCC(=O)c2cccs2)CC1,22%,/,/,0%,2%,-1%,/,6%
CSc1ncc(/C=C2/C(=O)NC(=O)N(c3ccc(C)cc3)C2=O)cn1,-8%[46.1 µM],/,/,1%,?,-10%,10%,2%
CC1CC(OC(=O)C(O)c2ccccc2)CC(C)(C)N1C (stereo not drawn),/,/,/,-3%,/,-11%&-6%,5%,1%[18.4 µM]
O=C(OCC(=O)N1CCN(c2ccccc2)CC1)c1ncc(Cl)c(Cl)c1Cl,-2%[46.1 µM],/,/,/,16%,-13%,/,-16%
O=C(O)c1ccc(Cl)c(S(=O)(=O)N(Cc2ccccc2)c2ccc(Cl)cc2)c1,?,/,/,12%,-29%[46.1 µM],-18%,4%,8%
CCCC(CCC)C(=O)Nc1c[nH]c(=O)[nH]c1=O,18%,2.8%,0%,-4%,0%,-23%,5%,13%[3.69 µM]
Nc1cc(N)nc(SCc2ccc(Cl)cc2)n1,12%,/,/,-14%,21%,26%,-131%,-14%
O=c1c2ccccc2nc2n1C1(CCCCC1)Cc1ccccc1-2,?,0.1%,-4%,-29%,-16%,-28%,-12%,-14%
O=C(Nc1cccc(S(=O)(=O)Nc2ccccc2Cl)c1)c1ccc(Cl)nc1,?,-3.9%,0%,-4%,?,28µM*,-2%,7%
O=c1c2nncn2ccn1-c1ccc(F)c(F)c1,11%[46.1 µM],-2.6%,16%,/,16%[46.1 µM],-16%,/,/
Cc1[nH]nc2nc3c(c(OC(=O)c4ccccc4)c12)c(=O)n(C)c(=O)n3C,4%,0.8%,-12%,-11%,/,/,-111%,/
COc1ccc(C)c2sc(N(Cc3cccnc3)C(C)=O)nc12,/,-3.6%,?,/,-10%[46.1 µM],0%,/,/
Cc1cccc(OCCn2nnc3ccccc32)c1C,2%,/,/,8%,12%,11%,-69%,13%
O=C(CN1CCN(c2ccccc2F)CC1)c1c[nH]c2ccc(F)cc12,12µM*,-5.7%,?,8%,?,-17%,0%,2%
COc1ccc([C@@H]2[C@@H]3C(=O)N(C(C)(C)C)C(=O)[C@@H]3[C@]3(Cc4ccccc4)C(=O)N(c4ccc(C(F)(F)F)cc4)C(=O)N23)cc1,/,/,/,-4%,/,-7%,27%,-1%
CCCCN1C(=O)c2ccc(C(=O)NCCN3C(=O)S/C(=C\c4cccnc4)C3=O)cc2C1=O,?,-11%,25%,2%,?,0%,-2%,-2%
[O-]C1=N/[N+](=C/c2ccccc2Cl)CC1,0%,-1.1%,4%,-3%,-1%,2%,8%,1%
O=C(CSc1nnc(-c2ccco2)o1)c1ccc(F)c(F)c1,3%,3.7%,-3%,6%,1%,17%,2%,1%
COC(=O)c1cc(-c2ccc(C)cc2)n[nH]1,/,/,/,-1%,/,67%[activator],-6%,-28%
O=C(O)C1C2CCC(O2)C1C(=O)NCCC1=CCCCC1 (stereo not drawn),-25%,-2.5%,-4%,0%,-5%,9%,-6%,5%
Cc1ccc(S(=O)(=O)N(C)C)cc1NC(=O)CSc1nc2ccccc2c(=O)n1CC1CCCO1 (stereo not drawn),-18%,/,/,-10%,?,-17%,6%,-8%
C=C(Br)Cn1cnc2ccccc21,?,/,/,-4%,10%,-21%,/,-8%
O=C(NCc1ccncc1)c1ccc(N2CCCC2)c([N+](=O)[O-])c1,-6%[46.1 µM],/,/,0%,-7%,-24%,/,9%
Cc1ccsc1C(=O)c1sccc1C,7%,-2.5%,?,-6%,1%,-16%,13%,-9%
COc1ccc(C2CC(c3cccs3)=NN2c2nc(-c3ccccc3)cs2)cc1OC (stereo not drawn),-16%,-3.9%,7.9µM*,-1%,2%,/,?,24%
CC(C)CCNC(=O)CN(Cc1ccccc1)C(=O)CCC(=O)Nc1ccccn1,11%[46.1 µM],/,/,-7%,9%,-16%,2%,-15%
CCOC(=O)N/N=C\c1ccc(-c2cccc(C(F)(F)F)c2)o1,-2%[46.1 µM],/,/,-6%,-20%,-18%,/,-27%
CC(=O)NNc1nc(-c2ccccc2)c2cc(Br)ccc2n1,?,5.5%,3%,4%,-17%,-21%,-6%,5%
N#Cc1cc2cc3c(cc2nc1SCC(=O)OC1CCCCC1)OCO3,0%,-6.6%,-6%,8%,17%,-6%,11%,5%
Cc1ccc(NC(=S)Nc2ccc(F)cc2)cc1C,/,/,/,12%,/,24%,-7%,4%
CC(OC(=O)c1cccc(S(=O)(=O)N(C)C)c1)C(=O)NCC(=O)Nc1ccc(F)c(F)c1F (stereo not drawn),?,/,/,/,13%,?,/,5%
Cn1nccc1NC(=O)Nc1ccc(Cl)cc1,/,/,/,1%,/,37%[activator],-5%,-3%
O=C(CSc1nnnn1-c1ccccc1)N1CCc2ccccc21,-3%,0.8%,1%,/,3%,/,6%,0%

# Next results
SMILES,MARV entry inh,Cruzain inh Det,Cruzain inh noDet,SARS PLP yeast,Lassa entry inh,2A StopGo,NS1 function inh,RE007 growth inh
CS(=O)(=O)N1N=C(c2ccc3nccnc3c2)CC1c1ccccc1 (stereo not drawn),3%,2.1%,-11%,2%,8%,0%,9%,21%
CN(C(=O)COc1cc(C(F)(F)F)nn1C)c1ccccc1,3%,/,/,0%,-1%,-13%,1%,17%
CC(OC(=O)CCN=C1NS(=O)(=O)c2ccccc21)C(=O)N(C)c1ccccc1 (stereo not drawn),-28%,/,/,-5%,-2%,-4%,/,10%
COCCCNC(=O)c1sc2ncccc2c1-n1cccc1,/,-1.7%,-5%,/,0%[46.1 µM],6%,/,/
O=C(Nc1ccc(F)cc1)c1cccc(NC(=O)C2C3CC4OC(=O)C2C4C3)c1 (stereo not drawn),8%,2.0%,13%,11%,-2%,-17%,3%,12%

# Screening results from PubChem BioAssay.
